Ecoli rRNA inh = reduced GFP signal of wild-type E. coli, primary screen, bacterial rRNA inhibitor project, GFP/RFP fluorescence, OD600, single point; E. coli WT GFP vs humanized-ribosome RFP mutants, 24 h; stronger effect = lower value; DMSO median 0, no signal -100; GFP signal change (wild-type ribosome), % (test concentration not listed); actives 1.6% (n = 350,000);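 active means significant combined selectivity score with lowered wild-type GFP, culture density cut under 30%, mutant RFP and density less affected; inactive means any of these conditions unmet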; further: one replicate is shown; some compounds called inactive have numbers as strong as hits
ALR inh = inhibitors of human ALR sulfhydryl oxidase, primary screen, biochemical, H2O2 detection, HRP-luminol luminescence, single point; purified ALR, DTT oxidation; FAD-linked sulfhydryl oxidase ALR (Homo sapiens), P55789; actives 3.8% (n = 290,000); AID 485317, 2010; inhibition, % (test concentration not listed);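 active means mean and each replicate at 75% or more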;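 further: stock transfer was 7.5 nL into about 7.5 µL; 0% = neutral wells and 100% = wells with inactivated enzyme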
Calb FLC = C. albicans growth inhibition with fluconazole, primary screen, CaCi-2 strain, Alamar Blue fluorescence; C. albicans CaCi-2 (fluconazole-resistant clinical isolate) + fluconazole, 48 h; AID 1979, 2009; growth inhibition, % (test concentration not listed); actives 0.57% (n = 300,000);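 active means most replicates above 75%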;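 further: all wells also contain fluconazole at 8 µg/ml as a sub-toxic cotreatment; 0% = median of DMSO wells and 100% = median of geldanamycin control wells; wells of about 8 µL received 7.5 nL stock; the first replicate is given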
Beta cell apopt = inhibitors of cytokine-induced beta cell apoptosis, primary screen, luminescence | INS-1E cytokine-induced death, ATP luminescence, 48 h; percent of positive-control rescue, neutral wells zero | protection from apoptosis, % (no concentration beside the values) | actives 0.8% (n = 300,000) | AID 435005, 2010;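 active means all replicates at 75% or more, or half of them and the mean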;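 further: 0% = cytokine-treated negative control wells and 100% = positive control rescue; higher means more ATP so stronger rescue from cytokine killing; wells of about 40 µL received 100 nL stock; the first replicate is given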
Beta2AR agonist = beta2AR agonists driving receptor internalization, primary screen, cell-based, FAP fluorogen, flow cytometry; response, % (no concentration beside the values); actives 0.43% (n = 340,000); Beta-2 adrenergic receptor (Homo sapiens), P07550; Am2.2-beta2AR cells; reference of the scale not given here;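 active means response above a set limit, near 3 SD of response in nonfluorescent compounds, cut at about 42% in these data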;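 further: stock transfer was 100 nL into about 11 µL; a reference agonist was the positive control; negative values mostly stem from fluorescent compounds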
T cruzi repl = inhibitors of intracellular T. cruzi growth, primary screen, luminescence, NIH3T3 host cells | actives 1.4% (n = 300,000) | inhibition, % (concentration not given with the values) | T. cruzi beta-gal in NIH3T3, 90 h;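 active means mean inhibition across valid replicates above about 55%, limit read from the data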;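 further: signal also drops with host cell toxicity which is not excluded here; 0% = plate median of DMSO wells and 100% = zero luminescence signal; higher percent means less beta-gal luminescence so fewer parasites; stock transfer was 50 nL into about 50 µL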
LANA-H2B inh = blockers of LANA interaction with H2A/H2B – biochemical, FP readout, HTS, primary screen; actives 0.6% (n = 320,000); cell-free LANA-H2A/H2B peptide, fluorescence polarization; inhibition, % (no concentration beside the values); in the data active means inhibition mostly above about 10%, no sharp cut-off; inactive means mostly below about 6.7%;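 further: stock transfer was 7.5 nL into about 10 µL; 0% = median of vehicle wells and 100% = median of positive control wells; one replicate is shown; the record names a cut of 25% in any replicate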
Target sequence (Q9QR71 whole entry, looked up): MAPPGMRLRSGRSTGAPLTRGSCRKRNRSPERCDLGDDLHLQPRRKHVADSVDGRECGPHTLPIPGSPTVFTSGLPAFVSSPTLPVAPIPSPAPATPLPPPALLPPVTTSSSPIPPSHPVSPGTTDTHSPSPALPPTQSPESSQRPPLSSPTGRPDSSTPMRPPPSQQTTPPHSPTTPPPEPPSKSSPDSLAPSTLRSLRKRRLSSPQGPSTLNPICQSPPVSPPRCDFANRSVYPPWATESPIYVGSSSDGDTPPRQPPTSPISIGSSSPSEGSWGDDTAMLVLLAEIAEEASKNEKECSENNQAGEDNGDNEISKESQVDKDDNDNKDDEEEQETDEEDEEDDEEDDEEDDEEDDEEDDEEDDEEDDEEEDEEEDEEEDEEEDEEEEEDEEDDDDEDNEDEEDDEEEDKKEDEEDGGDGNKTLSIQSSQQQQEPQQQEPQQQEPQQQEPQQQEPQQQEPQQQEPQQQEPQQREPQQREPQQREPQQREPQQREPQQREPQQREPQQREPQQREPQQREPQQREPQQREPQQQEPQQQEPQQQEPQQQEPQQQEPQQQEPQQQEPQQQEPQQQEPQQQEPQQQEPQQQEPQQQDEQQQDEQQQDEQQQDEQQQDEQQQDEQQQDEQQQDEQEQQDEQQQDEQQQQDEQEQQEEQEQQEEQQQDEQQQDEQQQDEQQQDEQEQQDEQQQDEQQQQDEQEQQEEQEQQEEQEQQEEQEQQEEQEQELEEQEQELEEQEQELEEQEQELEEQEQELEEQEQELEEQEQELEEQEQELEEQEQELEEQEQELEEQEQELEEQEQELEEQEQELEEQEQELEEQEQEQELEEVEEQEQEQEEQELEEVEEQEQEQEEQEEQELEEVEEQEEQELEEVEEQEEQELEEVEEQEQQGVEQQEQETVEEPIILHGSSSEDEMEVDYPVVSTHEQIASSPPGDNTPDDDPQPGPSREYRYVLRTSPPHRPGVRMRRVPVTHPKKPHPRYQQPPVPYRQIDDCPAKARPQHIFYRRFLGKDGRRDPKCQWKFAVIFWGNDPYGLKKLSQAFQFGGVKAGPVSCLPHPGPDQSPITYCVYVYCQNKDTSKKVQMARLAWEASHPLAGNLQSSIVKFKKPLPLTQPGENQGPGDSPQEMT
A1 inh = caspase 3/7 activation in MEF A1-2A-BIM cells, primary screen, A1 inhibitor project, cell-based, luminescence, HTS; Caspase-Glo 3/7 luminescence, 3 h; percent of clofoctol response, vehicle zero; caspase activation, % (no concentration beside the values); actives 0.066% (n = 330,000); AID 2462, 2010;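 active means over half of replicate activation scores above 10%, or exactly half above 10 with the replicate mean above 10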;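 further: wells of about 30 µL received 50 nL stock; many hits fall short of the cut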
Ecoli rRNA inh OD600 = second read-out of Ecoli rRNA inh, no call of its own (marks repeat the call); OD600 change, %; measured here: OD600 growth;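 optical density of the mix in the first replicate; 0 = DMSO median and -100 = no signal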
Ecoli rRNA inh RFP = further read-out of Ecoli rRNA inh, marked with its call; RFP signal change, %; measured here: RFP humanized mutant strains;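 first replicate; 0 = DMSO median and -100 = no signal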
* hit, by the source's call; . = no result given.

SMILES | Ecoli rRNA inh | Ecoli rRNA inh OD600 | Ecoli rRNA inh RFP | ALR inh | Calb FLC | Beta cell apopt | Beta2AR agonist | T cruzi repl | LANA-H2B inh | A1 inh
CCOC(=O)N1CCN(CC(=O)Nc2ccc([N+](=O)[O-])cc2C(=O)Nc2ccccc2F)CC1 | 7 | 14 | 1.5 | -1 | 9 | 14 | 0 | -41 | -2.1 | 1.1
COCCCn1c(SCC(=O)NC2CCCC2)nnc1-c1cccs1 | 3 | 9 | 1.9 | . | 2 | -6 | -5 | -7 | -5.5 | 0.2
CC(=O)c1ccc(S(=O)(=O)Nc2ccc(S(=O)(=O)N3CCCCC3)cc2)cc1 | -7 | -12 | -2.7 | -2 | . | -1 | 8 | . | -8.4 | 0.2
Cc1ccc(OCCn2ncc3ccccc3c2=O)c(C)c1 | -34 | -56 | 6.6 | 1 | 5 | -9 | -15 | -2 | -0.1 | 0.0
O=C(Nc1ccccn1)c1ccc(C(=O)c2ccccc2)cc1 | -9 | -18 | -1.6 | 3 | . | -7 | 7 | -5 | 3.6 | -2.0
COc1ccc2[nH]c3c(NCCN4CCCCC4)ncnc3c2c1 | . | . | . | -3 | 6 | 1 | 0 | -61 | 1.1 | -0.5
Brc1nc(-c2ccccc2)nc(-c2ccccc2)c1Br | 10 | 9 | -1.7 | 2 | 0 | -5 | 5 | -13 | 2.2 | 1.4
COc1ccc(C(CNC(=O)c2ccc(N3CCCC3=O)cc2)N2CCCC2)cc1 (centres undefined) | . | . | . | -5 | . | 0 | -14 | . | 3.6 | 0.8
O=C(CCCCCN1C(=O)CCC1=O)Nc1ncn[nH]1 | . | . | . | -5 | -1 | . | 6 | -4 | -1.7 | 0.0
CCOC(=O)C1CCCN(C(=O)/C(=C/c2ccco2)NC(=O)c2ccccc2)C1 (centres undefined) | 5 | 13 | 5.3 | 10 | 13 | -4 | 10 | -8 | 6.1 | 0.5
Nc1ccc(-n2c(N)c(C(=O)NCc3ccc4c(c3)OCO4)c3nc4ccccc4nc32)cc1 | 4 | 2 | 1.8 | -4 | 3 | -13 | 3 | 30 | -6.6 | 0.1
Cc1cccn2c(=O)c(C=Nc3ccccc3)c(NCCO)nc12 | 4 | -6 | 4.7 | -12 | 6 | . | -5 | -18 | -1.0 | 0.9
COc1ccc(/C=C/C(=O)N[C@@H](C)C(=O)O)cc1 | . | . | . | 3 | -2 | 1 | 0 | -9 | 1.3 | 0.8
CCOc1ccc(C(=O)N2CCC3(CC2)NCCc2[nH]cnc23)cc1OCC | 7 | 11 | -2.1 | -27 | -19 | -2 | -10 | 4 | -0.5 | 0.1
O=C(c1cc([N+](=O)[O-])ccc1N1CCOCC1)N1CCN(c2ccc([N+](=O)[O-])cc2)CC1 | 16 | 15 | -2.6 | . | -5 | 7 | 0 | 17 | 0.1 | -0.7
O=[N+]([O-])c1ccc(N2CCN(Cc3ccncc3)CC2)cc1 | -4 | 1 | -0.5 | -14 | -9 | 4 | 7 | 11 | 5.7 | 0.5
O=C(c1cn(CC(=O)N2CCCC2)c2ccccc12)C1CCCCC1 | . | . | . | 13 | -2 | -2 | 1 | 13 | -3.6 | -0.4
CCOC(=O)C(CC)n1cnc2c(cnn2-c2ccc(Cl)cc2)c1=O (centres undefined) | . | . | . | 0 | -2 | -7 | -3 | -3 | -3.4 | -0.2
Cn1c(SCC(=O)N2CCN(S(=O)(=O)c3ccccc3)CC2)nc2ccccc21 | -1 | -1 | -0.6 | -36 | 10 | -2 | 2 | 7 | 2.2 | -0.8
COc1ccc(C(=O)/C=C/c2cccnc2)c(OC)c1 | 0 | 7 | 6.5 | 16 | 7 | -16 | 11 | -7 | 0.6 | 0.6
Cc1ccc2cccc(OCCOCCOc3ccccc3Br)c2n1 | . | . | . | 2 | 1 | 5 | -3 | 19 | -0.1 | -0.9
Cc1cc(C(=O)N/N=C/c2ccc3c(c2)OCO3)c(C)o1 | 20 | 13 | 0.2 | 95* | -1 | . | -2 | -13 | -4.2 | -8.6
COc1ccc(C2c3[nH]c4ccccc4c3C[C@H]3C(=O)N(c4ccccc4C(=O)N4CCC[C@@H]4C(=O)O)C(=O)N23)cc1 (some centres undefined) | 7 | 4 | 1.2 | . | . | 0 | 4 | . | -1.8 | -0.2
COC(C(=O)Nc1ccnn1C1CCN(Cc2nccs2)CC1)c1ccccc1 (centres undefined) | 7 | 6 | -0.7 | -1 | 0 | . | -5 | -6 | -1.7 | 1.1
COc1ccc(S(=O)(=O)N2CCCC2CNC(=O)C(=O)Nc2ccc(F)cc2)cc1 (centres undefined) | -12 | -12 | 2.9 | -17 | 34 | . | -2 | -5 | -0.9 | -0.8
O=C(CN1C(=O)c2ccccc2C1=O)NC1CCCCCC1 | 9 | 4 | -1.2 | . | 4 | 0 | 1 | -9 | 12 | -0.8
CCOc1ccc(C(=O)N(CC(=O)Nc2cccc(C)c2C)CC2CCCO2)cc1OC (centres undefined) | 5 | 9 | -0.9 | -11 | . | -7 | -2 | . | -3.7 | 0.0
C=CCOC(=O)C1=C[C@H](C2CCCCC2)[C@@H](CCCO)[C@H](OCC)O1 | 4 | 0 | 15 | -5 | 0 | -2 | 6 | 20 | -1.0 | 0.4
CC(C)N(Cc1ccccc1)C(=S)Nc1ccc(OC(F)F)cc1 | . | . | . | -9 | 8 | -19 | 3 | -23 | -6.1 | 0.1
Cc1ccc(C(=O)Nc2ccc(S(=O)(=O)Nc3cnc4ccccc4n3)cc2)cc1 | -3 | -4 | -2.7 | -14 | -2 | 5 | 9 | 4 | -0.3 | 0.0
CCc1nccn1CCC(=O)N1CCc2c([nH]c3ccccc23)C1CC(C)C (centres undefined) | 4 | -2 | 3.1 | 30 | 4 | -13 | 0 | 6 | -1.3 | -0.2
Cc1cc(N)n(-c2ccc(C)c(C)c2)n1 | -3 | 0 | -1.2 | 5 | 49 | 0 | -1 | -10 | 2.4 | -2.6
CC(=O)c1ccc(S(=O)(=O)N2CCC(Oc3ccc(-n4cnnn4)cc3)CC2)cc1 | 4 | 13 | 0.4 | -9 | -11 | -8 | 16 | -23 | -0.6 | -0.1
Cc1cc(C)c2c(c1)cc(C)c1nnc(SCC(=O)N3CCCc4ccccc43)n12 | . | . | . | . | 5 | 4 | -9 | 17 | 0.7 | 0.4
CC(C)OC(=O)c1ccc(Cn2nnc3ccccc3c2=O)cc1 | . | . | . | 3 | 6 | -5 | -11 | 28 | -7.7 | 0.3
COc1ccc(Oc2ccc(/C=C/C(=O)c3cccc(OC)c3)cc2[N+](=O)[O-])cc1 | 11 | 11 | -1.8 | -1 | 17 | -7 | 16 | -7 | -7.6 | -0.2
CC1(C)CC(=O)C(C=NCCN2CCN(C(=O)CCl)CC2)=C(O)C1 | 16 | 4 | -1.0 | -1 | 11 | 0 | 4 | -5 | 4.1 | 0.1
COc1ccc(N(CC(=O)N/N=C/c2cc(OC)ccc2OC)S(=O)(=O)c2ccccc2)cc1 | -18 | -16 | 3.2 | -9 | 0 | -7 | -8 | -10 | 1.0 | -0.7
Cc1c(N2C(=O)c3ccccc3C2(O)c2ccccc2)c(=O)n(-c2ccccc2)n1C (centres undefined) | 10 | 7 | -3.7 | 1 | 3 | -2 | 2 | -1 | 4.7 | -0.1
Cc1cccc(C)c1NC(=O)CN(C)C(=O)c1ccccc1C(=O)N(C)Cc1ccccc1 | 2 | 4 | -0.2 | -3 | -9 | -5 | -2 | -6 | 7.6 | 0.4
Cc1nn(C(=O)c2cccs2)c(N)c1-c1ccccc1 | -27 | -76 | -21 | 6 | 1 | -6 | -17 | -6 | -1.2 | -0.9
CC(C)NC(=O)c1ccc(N2CCOCC2)nc1 | . | . | . | . | 9 | -6 | -1 | 2 | 1.5 | -0.1
COc1ccc(-c2nc3ccc(C)cc3c(=O)o2)cc1OC | -7 | -4 | -2.8 | -7 | -7 | . | 1 | 2 | 2.7 | -0.3
CC1=CC(=C(C#N)C#N)C=C(C)N1CCC(C)C | 12 | 7 | 4.1 | -13 | -11 | 0 | 1 | 7 | 6.3 | -0.6
COc1ccccc1-c1cc(C(=O)NCc2cccs2)no1 | . | . | . | -19 | -19 | -2 | -10 | 8 | 4.6 | 0.0
COc1ccccc1S(=O)(=O)Cc1ccc(C(=O)NCCN2CCCC2)o1 | . | . | . | -10 | -6 | -4 | -2 | -7 | -7.2 | 0.3
OCCOc1nnnn1-c1ccccc1 | . | . | . | -7 | -2 | -11 | -4 | -19 | -2.0 | -0.3
Cc1[nH]n(-c2ccccc2)c(=O)c1C(c1ccccc1[N+](=O)[O-])C(C#N)C#N (centres undefined) | 6 | 8 | -2.0 | 37 | 1 | -2 | -4 | -24 | -2.8 | 0.6
Cc1ccc(O)c(C2=NOC(O)(C(F)(F)C(F)F)C2)c1 (centres undefined) | 1 | 4 | 3.3 | 21 | -11 | 4 | 7 | 14 | -5.9 | -0.7
CN(C)c1ccc(NC(=O)CN2CCC(NC(=O)C3CCCCC3)CC2)cc1 | 2 | 11 | 2.2 | 58 | 3 | 2 | 4 | -3 | -2.5 | 0.8
COc1ccccc1CC(NC(C)=O)C(=O)NC1CCN(c2nnnn2-c2ccccc2)CC1 (centres undefined) | . | . | . | 7 | . | 0 | 4 | 0 | -1.3 | -0.3
COc1ccc(NC(=O)CN(C)C(=O)CNC(=O)c2ccc(C)s2)cc1 | 1 | 4 | 0.0 | . | 3 | -4 | 11 | -12 | -4.3 | -0.2
Cc1ccc(C(=O)COC(=O)CCC(=O)Nc2ccccc2Cl)cc1[N+](=O)[O-] | . | . | . | 15 | -1 | 4 | -7 | -16 | 8.0 | -0.7
COc1ccc(C(C)(C)C)cc1NC(=O)c1cccc(S(=O)(=O)N2CCN(C(C)=O)CC2)c1 | 2 | 2 | 1.0 | -2 | -5 | -8 | 5 | 2 | 2.7 | 1.9
CCN(CC)CCOC(=O)c1ccc(NC(=O)CCCN2C(=O)/C(=C/c3cccs3)SC2=S)cc1 | . | . | . | -10 | -43 | -5 | 23 | 7 | -1.0 | 0.3
CCOc1ccc(N(CC(=O)NC2CCCCC2)S(=O)(=O)c2ccc(C)cc2)cc1 | 7 | 4 | 1.3 | . | -9 | -2 | -25 | 15 | 25 | -0.2
O=C(O)c1ccc(CS(=O)(=O)c2c(Cl)cccc2Cl)o1 | 24 | 13 | 0.1 | 12 | 17 | 0 | -8 | -10 | -3.4 | -0.1
COc1ccc(OC)c(NC(=O)c2ccc(-c3csc(C)n3)cc2)c1 | -21 | -23 | -7.4 | -15 | 2 | . | -2 | 7 | -2.3 | -0.6

High-throughput results: PubChem BioAssay, several laboratories

Not all compounds are listed; rates above refer to the full screens.
